Mtb H37Rv = Mycobacterium tuberculosis H37Rv growth inhibition, cell based, confirmatory dose response (AID 1949); most inactive calls were filed without a number and no value below 0 was filed; one-dose inhibition, % at 10 µg/mL; IC50 in µg/mL for titrated hits; hit rate 1.6% among 100,000;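 active = confirmed in a dose series; inconclusive = about 50% or more but not retested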;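 also: bacteria grown 7 days with compound before Alamar blue readout; 0% = untreated bacteria and 100% = reference antibiotic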
* hit, by the source's call; i = inactive; ? = inconclusive. A portion of the library; count on the stated rates, not on these rows.

| Molecule | Mtb H37Rv |
| --- | --- |
| O=C(Nc1ccccc1F)c1ccc(Cl)c(F)c1F | i |
| COC(=O)c1c(NC(=O)c2cccs2)sc2c1CCCCCC2 | 15% |
| Cc1ccc(SCCC(=O)NCCC2=CCCCC2)cc1 | i |
| O=C(Nc1ccc(F)c(Cl)c1)C1CC2CCCC(C1)C2=O (stereo not drawn) | 40µg/mL* |
| CCCCn1c(-c2ccc(Br)cc2)n[nH]c1=S | i |
| COc1ccc(S(=O)(=O)NCc2cccnc2)c(C)c1C | i |
| O=C(CCc1ccccc1)Nc1nnc(SCc2ccccc2Br)s1 | i |
| CCC(C(=O)O/N=C(\N)c1ccccc1)c1ccccc1 (stereo not drawn) | i |
| CN(C)S(=O)(=O)c1ccc(NC(=O)Nc2ccc(Cl)cc2)cc1 | i |
| C=CCNC(=O)c1ccc(CSc2ccc(C)cc2)cc1 | i |
| COc1ccc(OC)c(CN2CCN(Cc3ccc(C)cc3)CC2)c1 | i |
| COc1ccc(NC(=O)c2ccc(N(Cc3ccc(C)cc3)S(C)(=O)=O)cc2)cc1Cl | 2% |
| O=C(CN1CCCC1)Nc1ccccc1 | i |
| Cc1nc2sc3c(c2c2ncnn12)CCCC3 | i |
| CC1=C(C(=O)Nc2ccc(F)cc2)C(c2c(Cl)cccc2Cl)NC(=S)N1 (stereo not drawn) | 0% |
| O=S(=O)(Nc1ccc(O)cc1)c1ccc(-c2ccccc2)cc1 | i |
| CCOC(=O)C1=C(C)NC(=O)NC1C1CC=CCC1 (stereo not drawn) | i |
| c1ccc(COc2cccc(CNCc3cccs3)c2)cc1 | 13% |
| COc1ccc(C(=O)NC(=S)Nc2cccc(C(=O)O)c2)cc1 | i |
| CCN(CC)c1nc(=S)nc(NC(C)(C)C)[nH]1 | 42% |

More results follow.
| Molecule | Mtb H37Rv |
| --- | --- |
| COc1cccc(NC(=O)c2ccc(NC(=O)c3ccccc3Cl)cc2)c1 | 1% |
| CCOc1ccc(C(=O)N(C)C2CCS(=O)(=O)C2)cc1 (stereo not drawn) | i |
| COc1ccc(Cc2nnc(SCC(=O)NCCc3ccccc3)o2)cc1 | <0.1µg/mL* |
| O=C(NC(=S)Nc1ccccc1-c1nc2ccccc2s1)c1ccco1 | i |
| CCn1c(CNC(=O)c2ccc(C)cc2)nnc1SCC(=O)N1CCN(c2ccccc2)CC1 | i |
| O=C(Nc1ccc2c(c1)OCO2)C1CCN(S(=O)(=O)c2ccc(F)cc2)CC1 | 4% |
| O=C(CSc1nc2ccccc2[nH]1)N1CCc2ccccc21 | 2% |
| COc1ccccc1Nc1nc(C)cc(C)n1 | 1% |
| COC(=O)c1c(C(=O)OC)c(C)n(Cc2ccco2)c1C | i |
| COC(=O)c1ccccc1Oc1ccccc1OC | 0% |
| CSc1ccc(CNCCCN(C)C)cc1 | 2% |
| COC(=O)c1c(NC(=S)NCCCn2nc(C)c(Br)c2C)sc2c1CCCCC2 | i |
| O=S(=O)(Nc1ccc2c(c1)OCCO2)c1ccc(C2CCCCC2)cc1 | i |
| O=C(COc1ccc2ccccc2c1)N1CCN(c2cccc(Cl)c2)CC1 | 1% |
| NC(=O)C1(N2CCCCC2)CCN(C(N)=NC(=O)c2ccccc2)CC1 | i |
| COCCN1C(=O)/C(=C/c2ccc(Cl)cc2)SC1=S | i |
| COc1c(Cl)cc(C(=O)N2N=N2)cc1Cl | i |
| O=C(Nc1cccc(Cl)c1Cl)c1ccc(N2CCCC2)c([N+](=O)[O-])c1 | i |
| COc1ccc(S(=O)(=O)Nc2cc(C(C)C)c(O)cc2C)cc1 | i |
| O=C1c2ccccc2C(=O)N1OS(=O)(=O)c1cccc2cccnc12 | i |

A second format for part of the listing above:
Compound: COc1ccc(S(=O)(=O)Nc2cc(C(C)C)c(O)cc2C)cc1
  Mtb H37Rv: i
Compound: O=S(=O)(Nc1ccc(O)cc1)c1ccc(-c2ccccc2)cc1
  Mtb H37Rv: i
Compound: O=C(CCc1ccccc1)Nc1nnc(SCc2ccccc2Br)s1
  Mtb H37Rv: i
Compound: O=C(Nc1cccc(Cl)c1Cl)c1ccc(N2CCCC2)c([N+](=O)[O-])c1
  Mtb H37Rv: i

Continued.
| Molecule | Mtb H37Rv |
| --- | --- |
| Cc1ccc(-c2csc3nc4c5ccccc5c(NCCOCCO)nn4c(=O)c23)cc1 | 33% |
| O=C(Nc1nc2ccccc2s1)c1ccc(S(=O)(=O)NCC2CCCO2)cc1 (stereo not drawn) | i |
| COc1ccccc1NC(=O)C1=C(C)NC2=C(C(=O)CC(c3ccc(OC)c(OC)c3)C2)C1c1cccs1 (stereo not drawn) | 33% |
| CCN(CC)C(=O)c1c(NC(=O)c2cccc(C)c2)sc2c1CCCCC2 | i |
| COc1ccc2nc(/C(C#N)=C\c3cc4c(cc3Cl)OCO4)[nH]c2c1 | 1% |
| CCCC(C)NC(=O)c1ccc(CN(c2ccccc2)S(C)(=O)=O)cc1 (stereo not drawn) | i |
| Cc1ccc(C(=O)NCCCN(C)C)o1 | i |
| C=CCn1cnc2scc(-c3cccc([N+](=O)[O-])c3)c2c1=O | i |
| CCN1CCN(CCOc2ccc(C(C)(C)C)cc2Cl)CC1 | i |
| CCN(CC)S(=O)(=O)c1ccc(OC)c(NC(=O)CCC2CCCCC2)c1 | i |
| CC(C)c1ccc(NC(=S)NNC(=O)c2cccnc2)cc1 | i |
| COc1cc(C(=S)N2CCOCC2)ccc1OCc1c(F)cccc1Cl | i |
| CCC(C)c1ccccc1OCC(=O)Nc1ccccc1C(=O)Nc1ccccc1 (stereo not drawn) | 0% |
| COc1cccc(CNc2nn[nH]n2)c1OC | i |
| CCn1c(SC(C)C)nc2ccccc2c1=O | 1% |
| CCOc1cc(CO)ccc1OCc1ccc(C(=O)O)cc1 | i |
| Cc1onc(-c2ccccc2)c1C(=O)Nc1cccc(S(=O)(=O)N(C)C)c1 | i |
| Cc1cc(C)c(OCCOCCN(C)C)c(Br)c1 | i |
| COc1cc(NC(=O)CCc2ccccc2)nc(OC)n1 | i |
| COC(=O)c1ccc(C)c(NC(=O)Nc2cccc(Cl)c2Cl)c1 | i |

Exported as labelled records: part of the list above
> CCn1c(SC(C)C)nc2ccccc2c1=O
  Mtb H37Rv: 1%
> CCOc1cc(CO)ccc1OCc1ccc(C(=O)O)cc1
  Mtb H37Rv: i
> Cc1onc(-c2ccccc2)c1C(=O)Nc1cccc(S(=O)(=O)N(C)C)c1
  Mtb H37Rv: i
> Cc1cc(C)c(OCCOCCN(C)C)c(Br)c1
  Mtb H37Rv: i

Next structures.
| Molecule | Mtb H37Rv |
| --- | --- |
| Cc1ccc(C(C)C)cc1C(=O)CC1(O)C(=O)Nc2ccc(Cl)cc21 (stereo not drawn) | i |
| Cc1cc(Cl)ccc1NC(=S)N1CCC(C(N)=O)CC1 | i |
| COc1ccc(C)cc1NC(=O)Nc1ccccc1SC | i |
| Cc1cc(Cl)ccc1N(CC(=O)Nc1ccc(F)cc1F)S(C)(=O)=O | i |
| Clc1ccccc1-c1nc2c3c4c(sc3ncn2n1)CCCC4 | i |
| O=C(NCCCN1CCN(CCCNC(=O)c2ccccc2F)CC1)c1ccccc1F | 3% |
| Cc1ccc(S(=O)(=O)N2CCCC2C(=O)Nc2ccc(C)cc2C)cc1 (stereo not drawn) | 1% |
| N#C/C(=C\c1cccc(Oc2ccccc2)c1)c1nn(-c2ccccc2)c(N)c1C#N | i |
| COCc1nnc(NC(=O)c2cccnc2)s1 | i |
| CCn1ncc(Br)c1C(=O)Nc1ccc(C)c(C)c1 | 8% |
| COc1ccc(C(=O)O)cc1NC(=S)NC(=O)c1ccc(C)c(Cl)c1 | i |
| COc1ccc(NC(=O)C(C)Oc2cc(C)cc(C)c2)cc1 (stereo not drawn) | i |
| COc1ccccc1NC(=O)C1=C(C)NC(=O)NC1c1cccc(Br)c1 (stereo not drawn) | i |
| Cc1sc(NC(=O)c2ccc(Cl)s2)c(C(N)=O)c1C | i |
| COc1ccc(S(=O)(=O)N2CCN(C(=O)c3ccc(OC)c(OC)c3)CC2)cc1 | i |
| COc1cc(OC)c(C=O)c(OC(=O)N2CCOCC2)c1 | i |
| CCc1sc(N)nc1-c1ccccc1 | i |
| CC1=C(C(=O)OC(C)C)C(c2cccc([N+](=O)[O-])c2)N2C(=O)CCSC2=N1 (stereo not drawn) | i |
| COCCNCC(=O)C12CC3CCC(CC(C3)C1)C2 | i |
| CN(C)c1ccc(NC(=O)c2ccncc2)cc1 | 2.9µg/mL* |

Remaining list, next part
| Molecule | Mtb H37Rv |
| --- | --- |
| CC(C)C(NC(=O)c1ccccc1)C(=O)Nc1ccccn1 (stereo not drawn) | i |
| COc1ccc(N2CCN(CC(O)COc3ccc(Cl)cc3)CC2)cc1 (stereo not drawn) | 5% |
| O=c1c2ccccc2cnn1CCOc1ccc(Cl)cc1 | i |
| S=C(NCc1cccs1)Nc1ccc(Br)cc1Cl | i |
| COC(=O)c1sc(NC(=O)c2cnccn2)c(C(=O)OC)c1C | i |
| C=CCOc1ccc(C2NC(=O)NC(C)=C2C(=O)Nc2ccc(F)cc2)cc1OCC (stereo not drawn) | 2% |
| Cc1ccc2nc3c(cc(C(=O)NC4CCCC4)c(=N)n3Cc3ccco3)c(=O)n2c1 | 1% |
| O=C(Nc1ncc([N+](=O)[O-])s1)C1CCCO1 (stereo not drawn) | i |
| Cc1ccc(C(=O)N/C(=C/c2ccc(N(C)C)cc2)C(=O)NC(C)C)cc1 | i |
| O=C(CSc1ccccn1)NC(c1ccccc1)c1ccccc1 | i |
| N#Cc1nc(-c2ccc(Cl)cc2)oc1NCc1cccc2c1OCO2 | i |
| O=C(c1ccc(F)cc1)N1CCN(Cc2ccccn2)CC1 | i |
| COc1ccccc1CC(=O)Nc1nncs1 | i |
| Cc1ccc(N2CCN(C(=O)c3cccc([N+](=O)[O-])c3C)CC2)cc1Cl | i |
| Cc1ccc2nc(SCc3ccccc3)c(C=O)c(=O)n2c1 | i |
| COC(=O)c1ccccc1NC(=O)CN(C)S(=O)(=O)c1ccc(F)cc1 | i |
| CCOc1ccccc1NC1=C(Cl)C(=O)N(c2cccc(Cl)c2)C1=O | i |
| COc1ccc(/C=N/N2CCN(Cc3ccc(Cl)cc3)CC2)c(OC)c1 | i |
| Cc1cc(N2C(=O)c3ccc([N+](=O)[O-])cc3C2=O)no1 | i |
| COc1cccc(Nc2nc(C3(C)CC4(CC(C)OC4=O)C(=O)O3)cs2)c1 (stereo not drawn) | i |

(listing goes on)
| Molecule | Mtb H37Rv |
| --- | --- |
| Cc1sc(-c2cccnc2)nc1-c1c[nH]c2ccccc12 | i |
| CC(C)(C)C(=O)c1sc2nc(-c3cccnc3)cc(C(F)(F)F)c2c1N | i |
| C=C(C)Cn1c(=S)[nH]c2sc3c(c2c1=O)CCc1ccccc1-3 | i |
| COc1ccccc1N1CCN(S(=O)(=O)c2ccc(Br)cc2C)CC1 | i |
| COc1ccc([N+](=O)[O-])cc1NC(=O)COc1ccc(Br)cc1C | i |
| c1cnc2c(OCc3nc4ccccc4[nH]3)cccc2c1 | i |
| COc1ccc(/C=N/N=C2/NC(=O)C(Cc3ccc(Cl)cc3)S2)cc1OC (stereo not drawn) | i |
| CC(C)c1ccc(OCC(=O)O/N=C(\N)c2ccccc2)cc1 | i |
| CC(=O)COc1ccc2c(=O)c(Oc3ccccc3Cl)coc2c1 | i |
| CCCCC(=O)NC(=S)Nc1ccc(N(CC)CC)cc1C | i |
| Cc1onc(-c2ccccc2)c1C(=O)Nc1nnc(C(F)(F)F)s1 | i |
| Cc1ccc(OCC(=O)Nc2ncc(C(F)(F)F)cc2Cl)c(Br)c1 | i |
| CCCC(=O)Nc1ccccc1N1CCCCC1 | i |
| CC1(C)CC(=O)c2cnc(NC3CCCC3)nc2C1 | 6% |
| O=C(O)CC1(CC(=O)Nc2ccc(C(F)(F)F)cc2)CCCC1 | i |
| COCCNC(=S)NCc1cccs1 | i |
| Cc1cc(OCC(=O)N2CCc3ccccc32)cc(C)c1Cl | i |
| CC1CCN(c2cc(/C=C(\C#N)c3nn(-c4ccccc4)c(N)c3C#N)c3ccccc3n2)CC1 | i |
| CCNC(=O)CC1C(=O)N(c2ccc(C)cc2)C(=O)N1Cc1ccc(OC)c(OC)c1 (stereo not drawn) | i |
| COc1ccc(C(=O)NCc2oc(-c3ccccc3)cc2C(=O)O)cc1 | i |

Further compounds:
| Molecule | Mtb H37Rv |
| --- | --- |
| CC1=C(C(=O)Nc2ccc(Cl)cc2)C(c2ccccc2C)NC(=S)N1 (stereo not drawn) | i |
| COc1ccc([N+](=O)[O-])cc1NC(=O)c1cc(Br)ccc1Cl | 3% |
| Cc1cccc(-n2ncc3c(NCCC4=CCCCC4)ncnc32)c1 | i |
| CSc1ccccc1NC(=O)CN(c1ccc(F)cc1)S(=O)(=O)c1ccc(C)cc1 | i |
| CS(=O)(=O)N(CC(=O)Nc1ccc(S(=O)(=O)N2CCCCC2)cc1)c1cc(C(F)(F)F)ccc1Cl | i |
| CCC(CC)NCc1ccc(OC)c(Br)c1 | i |
| COc1cc(Cl)c(C)cc1NC(=O)c1cc(C)ccc1C | i |
| CC(C)(C)CC(=O)Nc1cccc2c1CCCC2 | i |
| O=C(O)c1cccc(NC(=O)c2ccc(NC(=O)c3cccs3)cc2)c1 | i |
| Cc1cccc(NC(=O)NCCc2ccc(Cl)cc2)c1 | i |
| Cc1cc(C)n(C(=O)c2ccc(NC(=O)C3COc4ccccc4O3)cc2)n1 (stereo not drawn) | i |
| Cc1ccc(C(C)(C)C)c(OCCCCn2cnc3ccccc3c2=O)c1 | 4% |
| COc1cccc(COc2ccc3c(oc(=O)c4ccccc43)c2C)c1 | i |
| CC(NS(=O)(=O)c1ccc(F)cc1)C(=O)NC1CC1 (stereo not drawn) | i |
| O=C(Oc1ccccc1)c1cc2ccccc2o1 | ? |
| CCOc1cccc(N2C(=O)CC(S/C(N)=N/N=C(\C)c3ccc(Cl)s3)C2=O)c1 (stereo not drawn) | 2.6µg/mL* |
| CC1(C)Cc2c(sc(NC(=O)Cc3ccccc3)c2C(=O)O)CO1 | i |
| O=C(Nc1ccc2oc(-c3cccc(Cl)c3)nc2c1)c1ccc(Br)o1 | i |
| CCOC(=O)c1cccc(NC(=O)c2cccc(NC(=O)c3ccccc3)c2)c1 | i |
| CCC(=O)NC(c1ccco1)c1cc(Cl)c2cccnc2c1O (stereo not drawn) | i |
| CCCCNS(=O)(=O)c1ccc(NS(=O)(=O)c2ccc(Cl)cc2)cc1 | i |
